Autofluor counter = counter-screen for toxin protease inhibitors: compound fluorescence. actives 3.1% (n = 360,000). AID 624483. fluorescence intensity (concentration not given with the values). compound autofluorescence counterscreen, microsphere flow cytometry; active compounds read high;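 active means at least 3 SD above the mean of all compounds, about 16000 in these data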;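 further: 100 nL of 1 mM stock went into each well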
ugtP null kill = growth inhibition of S. aureus ugtP deletion strain | S. aureus RN4220 ugtP deletion, OD600 growth, 16 h; some inactives read as strong as hits | growth inhibition, % (no concentration beside the values) | actives 0.54% (n = 330,000) | AID 1259309;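 active means z-score under -3 and OD600 up to 0.15 on both plates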;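 further: plate controls were untreated wells for no effect and antibiotic for full effect; wells of about 80 µL received 100 nL stock; the first replicate is given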
BJeLR lethal = kills HRASV12-expressing BJeLR cells. actives 0.17% (n = 300,000). AID 1554. inhibition, % (test concentration not listed). BJeLR (HRASV12) viability, CellTiter-Glo ATP luminescence, 48 h; reference of the scale not given here;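 active means replicate mean above 50%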;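 further: 50 nL library stock added to about 25 µL; numbers are from one replicate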
PrP 5UTR inh = inhibition of PrP 5' UTR reporter expression; cell-based PrP 5' UTR mRNA reporter, plate reader; inhibition, % (concentration not given with the values); actives 0.35% (n = 340,000); AID 488862;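 active means every replicate at 50% or more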;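 further: 0 = median of the neutral control wells; tested in H4 reporter cells; numbers are from one replicate; inactives centre near -14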
Mtb hypoxia rep = reduces hypoxia-regulated biosensor signal in M. tuberculosis; M. tuberculosis hypoxia-regulated fluorescent reporter, fluorescence; fluorescence inhibition, % (concentration not given with the values); actives 0.1% (n = 300,000); AID 1159583;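 active means 35 to 45% if threefold the growth effect, above 45% if 1.5-fold the growth effect; inactive means the rest, general growth blockers included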;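 further: wells of about 50 µL received 100 nL stock; 0% = vehicle wells and 100% = reference inhibitor wells; whole bacteria with a GFP reporter of the hypoxia response; strong numbers were not always called active; many hits fall short of the cut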
Sa RN4220 lethal = S. aureus RN4220 growth inhibition | OD600, 16 h | inhibition, % (no concentration beside the values) | actives 0.33% (n = 330,000) | AID 1259311;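 active means z-score of -3 or lower and OD600 up to 0.18 on both plates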;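 further: plate controls were untreated cells for no effect and reference antibiotic for full effect; stock transfer was 100 nL into about 80 µL; one replicate is shown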
Mtb hypoxia rep growth = recorded beside Mtb hypoxia rep, whose call it bears; growth inhibition, %; measured here: M. tuberculosis growth (absorbance);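 0% = vehicle and 100% = reference antibiotic; read after six days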
Active calls of the source: *; · = no result given; & = joins results of further samples.

SMILES,Sa RN4220 lethal,PrP 5UTR inh,Mtb hypoxia rep,Mtb hypoxia rep growth,BJeLR lethal,Autofluor counter,ugtP null kill
O=C(Nc1ccccc1C(=O)N1CCCC1)c1ccc(Cl)c([N+](=O)[O-])c1,-1.8,5.4,-9.1,-0.3,9.6,2491,0.1
Cc1cc2c(=O)[nH]cnc2s1,2.0,-5.3,8.1,2.8,-7.9,3602,-2.3
CC(=NNC(=O)c1ccccn1)c1ccncc1,-0.1,·,12.0,4.2,·,·,15.1
COc1ccc(C2c3c(nc(C)[nH]c3=O)Oc3c2c(=O)oc2ccccc32)cc1 (stereo not drawn),-5.5,·,2.9,-1.7,-4.0,·,63.7
CCOC(=O)N/N=C/c1cc(C)n(-c2ccccc2)c1C,·,-31.7,·,·,-6.0,2079,·
Cc1nc(CNS(=O)(=O)c2cccnc2)cs1,4.4,-38.9,9.2,4.6,-7.3,7114,10.1
CC(CCc1ccccc1)NCC(O)c1cccc([N+](=O)[O-])c1 (stereo not drawn),3.9,-30.1,-3.2,10.3,5.7,6832,4.3
COc1cc2[nH]c(=O)n(CCC(=O)NCCC(C)C)c(=O)c2cc1OC,3.9,-13.8,7.5,5.3,-10.9,8144,6.0
CC(=O)Nc1ccnn1C1CCN(C(=O)c2cccc(C)c2C)CC1,-1.3,-14.7,-7.4,0.1,0.3,5181,-1.2
COc1ccc(-c2c[n+](CC(=O)c3cccs3)c3n2CCC3)cc1,-0.5,-5.1,-5.2,-3.6,-3.8,4861,14.9
NC(=O)COC(=O)c1ccccc1SCC(=O)NC1CCCCCC1,1.5,-6.0,12.5,5.9,-2.9,2031,-2.1
COc1cccc(/C=N/Nc2ncnc3c2[nH]c2ccc(C)cc23)c1OC,·,-10.7,·,·,-4.5,4091,·
COC(=O)C1=C(C)N(CCCC(=O)O)C(=O)NC1c1ccc(-c2ccccc2)cc1 (stereo not drawn),3.2,-19.8,-8.5,-10.8,-4.4,3299,2.8
CCOC(=O)C1(Cc2cccc(OC)c2)CCN(Cc2ccc3c(c2)OCCO3)CC1,7.6,-19.5,0.0,-2.4,-2.5,3862,14.0
Cc1ccc(NC(=S)Nc2ccc(S(=O)(=O)N3CCOCC3)cc2)cc1S(=O)(=O)N1CCOCC1,6.3,-10.3,5.2,-0.6,-2.5,4571,-3.1
COc1ccc(N(CC(=O)NN=Cc2ccccc2OC)S(=O)(=O)c2ccccc2)cc1,2.4,·,7.7,1.8,·,·,9.9
O=C(c1ccc(CNS(=O)(=O)c2cccc(Cl)c2)cc1)N1CCCC1,1.6,-14.9,2.1,6.8,0.1,3935,-0.4
O=c1[nH]c(NCCO)nnc1Cc1ccccc1,2.0,-2.5,-1.3,-8.3,-2.9,4502,6.9
CCOC(=O)c1cc2c(C)nn(-c3ccccc3)c2s1,-2.9,-41.1,·,·,-0.3,3497,-2.7
N#CC(c1ccc(Cl)cc1)c1ccc2c(C(F)(F)F)cc(C(F)(F)F)nc2n1 (stereo not drawn),100.5*,34.5,·,·,42.4,2814,100.9*
O=C(O)C(Cc1ccccc1)NS(=O)(=O)c1ccc(Cl)cc1 (stereo not drawn),-2.9,-11.2,-10.3,9.0,4.3,3692,-3.2
Cc1cc2c(cc1S(=O)(=O)Nc1ccc(OC(F)(F)F)cc1)OCC(=O)N2,-8.3,-3.7,12.8,1.0,6.5,6725,91.7*
O=C(CCCn1cnc([N+](=O)[O-])n1)Nc1ccc(Cl)cc1Cl,·,-8.8,·,·,7.0,6439,·
Cc1nc(N2CCN(c3ccccn3)CC2)c2c(C)c(C(=O)Nc3ccccc3F)sc2n1,-2.4,-13.5,-15.1,-0.8,-9.1,3689,7.9
Cc1ccc(C(=O)NC(=CC=Cc2ccccc2)C(=O)NCc2ccco2)cc1,2.7&5.5,·,5.2&3.8,14.1&11.4,·,·,0.5&8.9
Cc1nc(NC(=S)Nc2ccccc2)sc1C,4.6,-67.3,·,·,-14.9,2585,-0.4
O=C(CSCc1ccccc1)Nc1cc([N+](=O)[O-])ccc1F,5.8,-17.6,10.8,15.2,-1.9,2687,4.7
CCC(=O)Nc1ccc(NC(=S)NC(=O)Cc2ccccc2)cc1,6.0,-27.9,10.2,6.5,2.3,2136,63.4
O=C(O)c1ccc(NC(=O)c2cccc(S(=O)(=O)Nc3ccc(C(=O)O)cc3)c2)cc1,4.4,-4.7,-6.6,0.5,-5.0,3985,1.2
CCOC(=O)c1cc(C)sc1N=CC1C(=O)CC(C)(C)CC1=O,3.4,·,5.1,4.2,·,·,4.8
COc1c(Cl)cc(C(=O)Nc2ccccc2C(=O)O)cc1Cl,55.2,-17.4,13.6,11.7,8.2,9512,37.0
COc1ccc(NC(=O)COC(=O)CCC(=O)c2cccs2)cc1OC,5.6,2.7,8.6,10.9,·,3855,1.2
CCCOc1ccc(S(=O)(=O)N2CCCC2)cc1[N+](=O)[O-],3.1,-19.4,9.5,-0.3,5.4,4634,7.0
Cc1ccc(C)c(C(=O)COC(=O)c2ccccc2N2C(=O)C3C4CCC(C4)C3C2=O)c1 (stereo not drawn),6.7,-16.9,1.1,7.2,-4.6,20251*,-5.5
O=C1CCCc2ccccc2N1Cc1ccc(Cl)cc1,6.7,-18.9,·,·,5.7,2713,8.0
CCC(C)NC(=O)Cn1nc(Cc2ccncc2)c2ccccc2c1=O (stereo not drawn),1.5,-13.4,-0.6,-2.5,11.2,3731,2.4
CN(Cc1cc(Cl)cc(Cl)c1O)Cc1c(O)ccc2ccccc12,-13.9,-49.1,9.1,11.2,·,3543,-17.7
CCN(C(=O)CSc1nc2nc(C)cc(C)n2n1)c1ccccc1,-1.4,-13.5,-3.7,-3.0,1.8,10259,-3.5
O=[N+]([O-])c1cccc(C(=NN=Cc2ccccc2Br)C23CN4CN(CN(C4)C2)C3)c1,5.6,·,-2.8,3.9,·,·,-6.6
Cc1ccc(S(=O)(=O)N2CCN=C2SCc2cccnc2)cc1,2.8,-18.3,12.5,10.1,5.1,2245,1.7
Nc1cc(=O)[nH]c(SCC(=O)NC2CCCCCCC2)n1,-3.8,-14.2,2.2,-2.6,·,2917,-4.5
COc1ccc(O)c(C=Nc2cc(NC(C)=O)c(Cl)cc2Cl)c1,2.8,-29.2,-0.7,3.5,10.1,2221,0.8
CC(C)(C)OC(=O)NCC(=O)NNC(=O)C(C(=O)OCc1ccccc1)c1ccccc1 (stereo not drawn),3.6,11.7,-0.5,12.3,·,3553,6.8
O=C(Nc1cccc(C(=O)N2CCCCC2)c1)c1ccc(Cl)cc1,0.0,-15.2,4.0,-8.3,6.3,7597,3.6
CCNc1nc(SCC(=O)Nc2ccc(Cl)c(Cl)c2)nc(N(C)C)n1,-25.2,-5.3,16.4,7.6,16.1,4139,1.1
O=C(C1CCN(c2nnc(N3CCCC3=O)s2)CC1)N1CCN(Cc2ccc3c(c2)OCO3)CC1,-5.0,-26.6,-2.0,3.8,·,3401,-10.2
CCOC(=O)c1cc(-c2ccccc2)sc1NC(=O)C(C)OC(=O)c1cccnc1OCC (stereo not drawn),6.8,7.0,8.2,2.4,0.8,9976,1.4
CC(C)c1ccc2oc(-c3ccc(N)cc3)nc2c1,-1.3,37.4,1.2,-0.8,-14.4,21916*,68.3
CN(C(=O)CSc1nc2ccccc2o1)C1CCS(=O)(=O)C1 (stereo not drawn),2.1,-17.3,24.9,8.4,·,3956,1.5
Cc1ccc(-n2ncc3c(SCC(N)=O)ncnc32)cc1C,1.4,-46.1,1.0,4.2,-8.0,3254,3.7
COc1cccc(C=NNC(=O)C2=NNC(=O)C2C)c1O (stereo not drawn),2.0,·,-0.9,1.5,·,·,-3.4
CCOC(=O)c1cc(NC(=O)c2ccoc2C)cc(C(=O)OCC)c1,7.9,2.1,13.8,5.6,-1.3,23038*,-19.5
O=C(CSc1nc2ccccc2[nH]1)N/N=C/C=C/c1ccccc1[N+](=O)[O-],·,-22.2,·,·,-6.4,2115,·
CC(C)CC(c1nnnn1Cc1cccs1)N1CCN(c2nc3ccccc3s2)CC1 (stereo not drawn),0.5,-10.3,0.1,7.2,-0.3,4613,-0.4
C=CCn1c(SCc2c(F)c(F)c(F)c(F)c2F)nc(O)cc1=O,4.5,-1.6,-18.2,-8.2,-1.7,10281,-13.3
COc1ccc(Cc2nnc(Nc3ccc4c(c3)OCCO4)[nH]c2=O)cc1,4.4,-2.2,10.9,2.6,-3.4,4429,1.4

Given with each value named: part of the list above
COc1cccc(C=NNC(=O)C2=NNC(=O)C2C)c1O (stereo not drawn)
  Sa RN4220 lethal: 2.0	PrP 5UTR inh: ·	Mtb hypoxia rep: -0.9	Mtb hypoxia rep growth: 1.5	BJeLR lethal: ·	Autofluor counter: ·	ugtP null kill: -3.4

CCOC(=O)c1cc(NC(=O)c2ccoc2C)cc(C(=O)OCC)c1
  Sa RN4220 lethal: 7.9	PrP 5UTR inh: 2.1	Mtb hypoxia rep: 13.8	Mtb hypoxia rep growth: 5.6	BJeLR lethal: -1.3	Autofluor counter: 23038*	ugtP null kill: -19.5

Carrying on.
SMILES,Sa RN4220 lethal,PrP 5UTR inh,Mtb hypoxia rep,Mtb hypoxia rep growth,BJeLR lethal,Autofluor counter,ugtP null kill
NC(=O)C1CCN(C(=O)c2cc(-c3ccc(Cl)s3)nc3ccccc23)CC1,-3.9,5.4,-13.3,-6.3,·,2929,-3.0
O=C1OCC2=C1C(c1ccc3c(c1)OCO3)Sc1ccccc1N2 (stereo not drawn),-0.4,-23.3,·,·,11.0,5345,-3.5
CCOC(=O)Cc1csc(NC(=S)NC(=O)c2ccc(C)cc2)n1,-3.6,-1.1,-1.5,-1.0,1.6,2323,31.6
Cc1sc2ncn(CC(=O)NC3CCCCC3)c(=O)c2c1C,-3.0,-28.0,-4.8,-5.0,·,8761,-1.6
Cc1ccccc1C(=O)NNC(=O)C(=O)N1CCCCC1,3.7,-11.9,-2.0,3.4,-3.9,6960,-2.3
CS(=O)(=O)N(Cc1ccccc1F)c1ccccc1,-1.0,-12.5,·,·,3.7,3514,0.8
CCN(CC)c1ccc(C=Nc2ccc(C#N)cc2)c(O)c1,7.5,0.5,·,·,4.1,2553,4.1
Cc1nn2c(C(F)(F)F)cc(-c3ccc(Cl)cc3)nc2c1C(=O)N1CCOCC1,3.6,-9.8,·,·,3.0,2266,8.6
CCCN1CCN(CCCNC(=O)C2CCCN(c3nc4ccc(OCC)cc4s3)C2)CC1 (stereo not drawn),5.9,-13.4,14.8,3.6,-7.8,8397,2.5
O=C1c2cccc(OCC(=O)N3CCCc4ccccc43)c2CCN1Cc1ccc(Br)cc1,-6.6,-24.9,4.2,1.9,12.4,2859,-14.5
O=C(NC1CC1)c1cc(-c2ccccn2)nc2ccccc12,1.9,-8.2,·,·,-14.9,2370,2.6
CCOC(=O)c1ccc(Nc2cnc3ccccc3n2)cc1,-10.8,-80.6,15.5,12.6,1.5,4055,-0.1
CCOC(=O)CN1c2ccccc2NC(=O)CC1C (stereo not drawn),1.8,-33.8,·,·,-8.6,6140,4.0

Source: PubChem BioAssay
